From PubChem
B2AR ag: human beta-2 adrenergic receptor agonism by FAP. 0.43% of 340,000 active. Am2.2-beta2AR cells, FAP receptor internalization, flow cytometry; reference of the scale not given here. P07550. AID 504454. response, % (concentration not given with the values);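 active = response above a set limit, near 3 SD of response in nonfluorescent compounds, cut at about 42% in these data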;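 also: stock transfer was 100 nL into about 11 µL; a reference agonist was the positive control; negative values mostly stem from fluorescent compounds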
Target sequence (P07550 whole entry, looked up): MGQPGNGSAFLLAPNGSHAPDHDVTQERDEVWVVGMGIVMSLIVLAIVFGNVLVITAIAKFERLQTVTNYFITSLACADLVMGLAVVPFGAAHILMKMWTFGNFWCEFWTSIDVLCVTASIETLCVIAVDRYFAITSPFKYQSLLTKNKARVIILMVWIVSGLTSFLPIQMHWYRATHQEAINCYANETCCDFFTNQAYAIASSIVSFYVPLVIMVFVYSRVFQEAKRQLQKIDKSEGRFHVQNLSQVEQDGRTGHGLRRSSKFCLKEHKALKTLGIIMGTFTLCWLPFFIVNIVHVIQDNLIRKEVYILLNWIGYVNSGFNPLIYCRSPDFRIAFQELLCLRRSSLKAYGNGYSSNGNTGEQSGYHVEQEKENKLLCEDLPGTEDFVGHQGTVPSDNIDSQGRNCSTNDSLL
HNF4A DNA FP: change in binding of human HNF4 alpha to DNA | HNF4a-FITC DNA binding, fluorescence polarization, 1 h | activity change, % at 10 µM | 0.3% of 360,000 active; in the data active = activity change above about 30%, passing the limit was not always enough;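 also: controls were the assay level and a saturating level of protein; the project sought stronger binding though the title names inhibitors; some compounds called inactive have numbers as strong as hits; positive values seem to mean higher polarization but the record does not say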
FGF22 binding: binders of recombinant human FGF22 by thermal shift | Q9HCT0 | SYPRO orange fluorescence; percent of sucrose octasulfate shift, DMSO zero | calls only at 9.99 µM | 1.5% of 340,000 active | AID 651658;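 active = melting point raised past a set limit in the mean and every replicate; three in four hits are not shown here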
Target sequence (Q9HCT0 whole entry, looked up): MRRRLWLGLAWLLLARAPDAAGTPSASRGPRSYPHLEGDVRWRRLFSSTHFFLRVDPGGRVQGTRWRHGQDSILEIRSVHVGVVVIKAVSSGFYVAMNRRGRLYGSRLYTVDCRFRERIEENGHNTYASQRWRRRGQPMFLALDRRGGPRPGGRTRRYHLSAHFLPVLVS
rRNA inh HTS: inhibitors of bacterial rRNA selective over humanized ribosomes; 1.6% of 350,000 active; E. coli WT GFP vs humanized-ribosome RFP mutants, fluorescence, 24 h; stronger effect = lower value; DMSO median 0, no signal -100; GFP signal change (wild-type ribosome), % (test concentration not listed);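 active = significant combined selectivity score with lowered wild-type GFP, culture density cut under 30%, mutant RFP and density less affected; inactive = any of these conditions unmet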; also: one replicate is shown; some compounds called inactive have numbers as strong as hits
Ecoli growth: E. coli growth inhibition; Escherichia coli growth, OD600, 23 h; stronger effect = lower value; OD600 absorbance (test concentration not listed); 0.21% of 330,000 active;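 active = OD600 absorbance below the run mean of sample wells minus 3.6 SD, in any replicate, cut at about 0.56 in these data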;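 also: stock transfer was 300 nL into about 60 µL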
ALR H2O2 inh: blocks human ALR sulfhydryl oxidase activity; P55789; purified ALR, DTT oxidation, H2O2 HRP-luminol luminescence; inhibition, % (concentration not given with the values); 3.8% of 290,000 active; AID 485317;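 active = mean and each replicate at 75% or more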;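 also: stock transfer was 7.5 nL into about 7.5 µL; 0% = neutral wells and 100% = wells with inactivated enzyme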
Target sequence (P55789 whole entry, looked up): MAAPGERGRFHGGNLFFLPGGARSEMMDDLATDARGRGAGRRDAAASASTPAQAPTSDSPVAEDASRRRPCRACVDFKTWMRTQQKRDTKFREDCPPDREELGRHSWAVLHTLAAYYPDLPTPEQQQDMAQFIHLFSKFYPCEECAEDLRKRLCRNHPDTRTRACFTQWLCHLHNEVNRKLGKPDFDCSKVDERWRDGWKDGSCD
UCH37 DUB inh: inhibitors of human deubiquitinating enzyme UCH37. 0.33% of 330,000 active. inhibition, % (test concentration not listed). purified proteasome/UCH37, Ub-AMC cleavage fluorescence. AID 588478. Q9Y5K5;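 active = mean of two replicates above 20%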;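 also: 0% = compound-free wells with enzyme and 100% = wells lacking proteasome; stock transfer was 100 nL into about 20 µL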
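Material: human UCH37 enzyme supplied as purified proteasome complex / Amount: 0.15 nM proteasome as dispensed / Buffer or medium: pH 7.4 Tris-HCl (50 mM) with ovalbumin, ATP-MgCl2, DTT / Times: preincubation 30 min, reaction 25 min, room temperature / Technique: AMC fluorescence from Ub-AMC cleavage, excitation 355 nm, emission 460 nm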
rRNA inh HTS OD600: also measured in rRNA inh HTS; calls as there; OD600 change, %; measured here: OD600 growth;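 optical density of the mix in the first replicate; 0 = DMSO median and -100 = no signal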
rRNA inh HTS RFP: second read-out of rRNA inh HTS, no call of its own (marks repeat the call); RFP signal change, %; measured here: RFP humanized mutant strains;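 first replicate; 0 = DMSO median and -100 = no signal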
The depositor's hits bear a star.

S=c1[nH]nc(CSCc2ccc(Cl)cc2Cl)n1-c1ccccc1 was read as B2AR ag -2, HNF4A DNA FP -0.1, Ecoli growth 0.65, ALR H2O2 inh 2 and UCH37 DUB inh 2.3.
For COc1cc(OC)cc(C(=O)O/N=C(\N)c2cccc(C)c2)c1 the results were B2AR ag 11, HNF4A DNA FP 0.0, FGF22 binding inactive, rRNA inh HTS 7, Ecoli growth 0.67, ALR H2O2 inh -1, UCH37 DUB inh 1.1, rRNA inh HTS OD600 16 and rRNA inh HTS RFP 0.1.
`Cc1c(OC(C(=O)O)c2ccccc2)ccc2c1oc(=O)c1ccccc12` (stereo not drawn) gave B2AR ag 2, HNF4A DNA FP -0.8, rRNA inh HTS -28, Ecoli growth 0.68, ALR H2O2 inh 5, UCH37 DUB inh inactive, rRNA inh HTS OD600 -28 and rRNA inh HTS RFP -3.4.
Screening CNc1ncnc2c1cnn2C1CCCCO1 (stereo not drawn) returned B2AR ag -4, HNF4A DNA FP 6.2, FGF22 binding inactive, Ecoli growth 0.67 and UCH37 DUB inh 5.3.
Screening CCCCCn1c(=O)[nH]c2cc(C(=O)NCCCN3CCCCC3CC)ccc2c1=O (stereo not drawn) returned B2AR ag 10, HNF4A DNA FP 6.5, FGF22 binding inactive, rRNA inh HTS -1, Ecoli growth 0.67, ALR H2O2 inh 2, UCH37 DUB inh -19, rRNA inh HTS OD600 -9 and rRNA inh HTS RFP 4.0.
O=C(CN1CCN(S(=O)(=O)c2ccc(F)cc2)CC1)NC1CCCC1 was read as B2AR ag -1, HNF4A DNA FP 0.4, FGF22 binding inactive, rRNA inh HTS 5, Ecoli growth 0.7, ALR H2O2 inh 2, UCH37 DUB inh 3.9, rRNA inh HTS OD600 7 and rRNA inh HTS RFP 0.2.
`O=C(COc1ccccc1)NC1CCCCC1` gave B2AR ag 2, HNF4A DNA FP 3.9, Ecoli growth 0.66, ALR H2O2 inh -11 and UCH37 DUB inh 1.3.
`COc1ccc(CCN2C(=O)CC(N3CCOCC3)C2=O)cc1` (stereo not drawn) gave B2AR ag -4, HNF4A DNA FP -0.7, Ecoli growth 0.73, ALR H2O2 inh -3 and UCH37 DUB inh -2.6.
For COc1ccc(/C=N\NC(=O)c2ccccc2OC)cc1COc1c(F)c(F)c(F)c(F)c1F the results were B2AR ag 3, HNF4A DNA FP 3.2, FGF22 binding inactive, rRNA inh HTS 0, ALR H2O2 inh 4, rRNA inh HTS OD600 -7 and rRNA inh HTS RFP 3.6.
For O=C(CC(=O)Nc1ccc(F)cc1F)Nc1ccc(F)cc1F the results were B2AR ag -2, HNF4A DNA FP -1.6, FGF22 binding inactive, rRNA inh HTS 0, Ecoli growth 0.67, ALR H2O2 inh -1, UCH37 DUB inh -0.3, rRNA inh HTS OD600 7 and rRNA inh HTS RFP 0.5.
For N#Cc1ccccc1NC(=O)CSc1nnc(-c2ccccc2)n1-c1ccccc1 the results were B2AR ag 9, HNF4A DNA FP -1.8, Ecoli growth 0.68, ALR H2O2 inh -2 and UCH37 DUB inh 1.6.
For O=C(Nc1ccc(F)cc1)/C(Cl)=C/c1ccccc1 the results were B2AR ag -7, HNF4A DNA FP -3.4, FGF22 binding inactive, rRNA inh HTS 7, ALR H2O2 inh -1, UCH37 DUB inh 5.7, rRNA inh HTS OD600 19 and rRNA inh HTS RFP 3.2.
Screening COc1ccc2c(c1OC)C(=O)N(c1ccc(O)cc1)C2 returned B2AR ag 5, HNF4A DNA FP -0.3, FGF22 binding inactive, rRNA inh HTS -4, Ecoli growth 0.67, ALR H2O2 inh 38, UCH37 DUB inh 3.2, rRNA inh HTS OD600 -6 and rRNA inh HTS RFP 4.9.
CO/C([O-])=N/c1c[n+](-c2ccc(C)cc2)no1 was read as B2AR ag 8, HNF4A DNA FP 0.9, Ecoli growth 0.74, ALR H2O2 inh -4 and UCH37 DUB inh 0.6.
`CCn1cnc2sc(C(=O)Oc3ccc(Br)cc3)c(C)c2c1=O` gave B2AR ag 12, HNF4A DNA FP 3.4, FGF22 binding inactive, rRNA inh HTS 12, Ecoli growth 0.71, ALR H2O2 inh -23, UCH37 DUB inh 4.2, rRNA inh HTS OD600 9 and rRNA inh HTS RFP -0.2.

Quoted at random: two compounds from above
`COc1ccc(CCN2C(=O)CC(N3CCOCC3)C2=O)cc1` (stereo not drawn) gave B2AR ag -4, HNF4A DNA FP -0.7, Ecoli growth 0.73, ALR H2O2 inh -3 and UCH37 DUB inh -2.6.
CO/C([O-])=N/c1c[n+](-c2ccc(C)cc2)no1 was read as B2AR ag 8, HNF4A DNA FP 0.9, Ecoli growth 0.74, ALR H2O2 inh -4 and UCH37 DUB inh 0.6.

New compounds follow:
`COc1ccc(CN(C)C(=O)Cc2ccc(OC)c(S(=O)(=O)N3CCOCC3)c2)cc1` gave B2AR ag 3, HNF4A DNA FP 1.0, FGF22 binding inactive, rRNA inh HTS -1, Ecoli growth 0.65, ALR H2O2 inh -15, UCH37 DUB inh 4.6, rRNA inh HTS OD600 4 and rRNA inh HTS RFP -2.0.
`Cc1ccc(NCc2nnc3n2CCCCC3)cc1` gave B2AR ag 16, HNF4A DNA FP -3.1, FGF22 binding inactive, rRNA inh HTS 13, Ecoli growth 0.69, ALR H2O2 inh 18, UCH37 DUB inh 0.3, rRNA inh HTS OD600 0 and rRNA inh HTS RFP 2.8.
For COc1ccc2nc3n(c(=O)c2c1)-c1ccc(Cl)cc1C(=O)NC3Cc1ccc(O)cc1 (stereo not drawn) the results were B2AR ag 2, HNF4A DNA FP -1.7, FGF22 binding inactive, rRNA inh HTS 2, rRNA inh HTS OD600 3 and rRNA inh HTS RFP 0.7.
`Fc1cccc(NC(=S)Nc2cccc3ccccc23)c1` gave B2AR ag -4, HNF4A DNA FP 3.9, FGF22 binding inactive, rRNA inh HTS -1, Ecoli growth 0.66, ALR H2O2 inh -11, UCH37 DUB inh -2.5, rRNA inh HTS OD600 2 and rRNA inh HTS RFP -0.1.
`COCCCNc1c2c3c(cccc3[nH]c1=O)C(=O)c1ccccc1-2` gave B2AR ag -118, HNF4A DNA FP -103, FGF22 binding inactive, rRNA inh HTS 64, Ecoli growth 0.7, UCH37 DUB inh 0.9, rRNA inh HTS OD600 -25 and rRNA inh HTS RFP 22.
`CCCCCc1cc(=O)oc2c(C(CCN3CCCC3)c3ccc(N(C)C)cc3)c(OC)cc(OC)c12` (stereo not drawn) gave B2AR ag 35, HNF4A DNA FP 1.2, FGF22 binding inactive, rRNA inh HTS -46, Ecoli growth 0.68, UCH37 DUB inh -1.4, rRNA inh HTS OD600 -41 and rRNA inh HTS RFP 6.8.
Screening CCS(=O)(=O)N1CCC(C(=O)NCc2ccc(OC)cc2OC)CC1 returned B2AR ag -6, HNF4A DNA FP 2.6, FGF22 binding inactive, rRNA inh HTS 16, Ecoli growth 0.71, ALR H2O2 inh -10, UCH37 DUB inh 1.0, rRNA inh HTS OD600 13 and rRNA inh HTS RFP -7.0.
`COc1cc(/C=N/NC(=S)Nc2cccc(C(=O)O)c2)cc(OC)c1OC` gave B2AR ag -1, HNF4A DNA FP -0.9, FGF22 binding inactive, rRNA inh HTS 6, ALR H2O2 inh 67, rRNA inh HTS OD600 2 and rRNA inh HTS RFP -10.
For CCOc1ccc(S(=O)(=O)N2CCOCC2)cc1NC(=O)Cc1c(F)cccc1Cl the results were B2AR ag -1, HNF4A DNA FP 3.0, rRNA inh HTS 6, Ecoli growth 0.69, ALR H2O2 inh -2, UCH37 DUB inh 1.1, rRNA inh HTS OD600 13 and rRNA inh HTS RFP -0.9.
Cc1ccc(S(=O)(=O)Nc2ccc(Nc3nccn4c(-c5cccc(OC(F)(F)F)c5)cnc34)cc2)cc1 was read as HNF4A DNA FP 6.3, FGF22 binding inactive, rRNA inh HTS 15, rRNA inh HTS OD600 21 and rRNA inh HTS RFP 5.9.
CC(=O)OCC(=O)C1(O)CCC2C3CCC4=CC(=O)CCC4(C)C3(F)C(O)CC21C (stereo not drawn) was read as B2AR ag 3, HNF4A DNA FP 1.1, FGF22 binding inactive, rRNA inh HTS 4, Ecoli growth 0.67, UCH37 DUB inh 1.3, rRNA inh HTS OD600 0 and rRNA inh HTS RFP 7.8.
`COC(=O)c1ccc2c(=O)n(Cc3ccc4c(c3)OCO4)c(=S)[nH]c2c1` gave B2AR ag -3, HNF4A DNA FP 2.3, FGF22 binding inactive, rRNA inh HTS 7, Ecoli growth 0.64, UCH37 DUB inh 0.7, rRNA inh HTS OD600 15 and rRNA inh HTS RFP -0.4.
For c1ccc(CN2CCN(c3ncccn3)CC2)cc1 the results were B2AR ag -9, HNF4A DNA FP 2.1, FGF22 binding inactive, rRNA inh HTS 9, Ecoli growth 0.6, UCH37 DUB inh 1.0, rRNA inh HTS OD600 18 and rRNA inh HTS RFP 9.5.
CCOc1ccc(N(C)S(=O)(=O)c2ccc3[nH]cc(C(=O)NCCOC)c(=O)c3c2)cc1 was read as B2AR ag 1, HNF4A DNA FP 3.0, FGF22 binding inactive, rRNA inh HTS 9, Ecoli growth 0.73, ALR H2O2 inh 9, UCH37 DUB inh -0.2, rRNA inh HTS OD600 11 and rRNA inh HTS RFP 0.9.
`COc1ccc(C(=O)NNC(=O)OC(C)(C)C)cc1` gave B2AR ag -8, HNF4A DNA FP -2.5, FGF22 binding inactive, rRNA inh HTS 8, Ecoli growth 0.72, ALR H2O2 inh 4, UCH37 DUB inh 2.5, rRNA inh HTS OD600 8 and rRNA inh HTS RFP -1.6.
`CC(C)CC(c1nnnn1Cc1ccc2c(c1)OCO2)N1CCC(C(N)=O)CC1` (stereo not drawn) gave B2AR ag 2, HNF4A DNA FP 1.0, FGF22 binding inactive, rRNA inh HTS 5, Ecoli growth 0.72, ALR H2O2 inh -6, UCH37 DUB inh 0.6, rRNA inh HTS OD600 -6 and rRNA inh HTS RFP 0.1.
Screening Cc1noc(C)c1S(=O)(=O)N(C)C[C@H]1Oc2ccc(NC(=O)Cn3cnnn3)cc2C(=O)N([C@H](C)CO)C[C@@H]1C returned B2AR ag 1, HNF4A DNA FP 1.2, FGF22 binding inactive, rRNA inh HTS 18, Ecoli growth 0.76, ALR H2O2 inh -2, UCH37 DUB inh -1.3, rRNA inh HTS OD600 13 and rRNA inh HTS RFP 1.1.
N#Cc1nc(COc2cccc(Cl)c2)oc1N1CCCC1 was read as B2AR ag -1, HNF4A DNA FP 3.3, FGF22 binding inactive, rRNA inh HTS -33*, Ecoli growth 0.67, ALR H2O2 inh -5, UCH37 DUB inh 2.0, rRNA inh HTS OD600 -28* and rRNA inh HTS RFP -5.5*.
For CCOc1ccccc1N/C=C(\C#N)c1nc2ccccc2n1C the results were B2AR ag -12, HNF4A DNA FP 2.2, Ecoli growth 0.75, ALR H2O2 inh -1 and UCH37 DUB inh -13.
Screening CCOc1ccc(S(=O)(=O)N2CCCC(C(=O)NCc3ccco3)C2)cc1 (stereo not drawn) returned B2AR ag -5, HNF4A DNA FP -0.6, FGF22 binding inactive, rRNA inh HTS 3, Ecoli growth 0.74, ALR H2O2 inh 1, UCH37 DUB inh 4.3, rRNA inh HTS OD600 9 and rRNA inh HTS RFP 2.1.

Only part of the results is shown; count on the stated rates, not on these rows.
